# Screening results as filed in PubChem BioAssay.
# MLL AF4-AF9 inh – inhibitors of AF4 peptide binding to AF9, primary screen, biochemical, AlphaScreen, biotin-AF4 peptide, FLAG-AF9, single point | Protein AF-9 (Homo sapiens), P42568 | inhibition, % at 10 µM | 350,000 tested, 0.47% active;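 active means every replicate reaching a set inhibition limit, whatever the replicate mean, cut at about 25% in these data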;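 further: 0% = plate neutral control median and 100% = total signal loss; the record names both 10 and 1 µM as test concentration; the first replicate is given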
# Target sequence (P42568 whole entry, looked up): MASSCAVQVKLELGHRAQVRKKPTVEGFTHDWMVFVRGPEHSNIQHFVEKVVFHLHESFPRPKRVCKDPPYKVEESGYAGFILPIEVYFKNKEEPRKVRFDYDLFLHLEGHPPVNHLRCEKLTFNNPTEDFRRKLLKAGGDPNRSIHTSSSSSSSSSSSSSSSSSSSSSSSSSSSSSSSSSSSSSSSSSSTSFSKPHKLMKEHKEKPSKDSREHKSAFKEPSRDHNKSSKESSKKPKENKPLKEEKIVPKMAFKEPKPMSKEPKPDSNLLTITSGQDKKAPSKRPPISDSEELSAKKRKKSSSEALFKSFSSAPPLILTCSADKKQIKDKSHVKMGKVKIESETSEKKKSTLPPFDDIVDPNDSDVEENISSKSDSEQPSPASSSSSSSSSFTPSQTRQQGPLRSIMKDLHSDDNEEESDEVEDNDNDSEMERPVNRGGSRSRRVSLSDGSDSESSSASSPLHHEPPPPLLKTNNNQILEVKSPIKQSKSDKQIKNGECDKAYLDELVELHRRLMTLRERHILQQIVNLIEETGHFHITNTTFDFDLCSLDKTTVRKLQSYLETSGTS
# The depositor's hits bear a star.
SMILES,MLL AF4-AF9 inh
C[C@@H]1CN([C@H](C)CO)C(=O)c2cc(C#Cc3ccccc3F)cnc2O[C@H]1CN(C)C(=O)C1CCC1,1.1
CC(C)C[C@@H]1COc2cc(N3CCOCC3)ccc2S(=O)(=O)N1,-0.8
CC=Cc1ccc2n(c1=O)C[C@H]1[C@H](CO)[C@@H](C(=O)NCc3ccccc3)N(CCC(F)(F)F)[C@@H]21 (mixture of isomers),1.3
CCN(C)C1CN(Cc2cn(CCCOC)nn2)S(=O)(=O)C1 (centres undefined),-4.4
O=C1c2ccccc2C(c2nnnn2Cc2ccccc2)N1CCCN1CCOCC1 (centres undefined),-4.1
CC(C)NC(=O)Nc1ccc2c(c1)C(=O)N([C@H](C)CO)C[C@H](C)[C@H](CN(C)S(=O)(=O)c1ccc(Cl)cc1)OCCCC[C@@H](C)O2,-2.7
CCC(=O)N1CCC2(CC1)CN(C(=O)Nc1ccc(F)cc1)[C@@H](CO)c1c2c2ccc(OC)cc2n1C,3.8
COc1ccc(S(=O)(=O)N(C)C[C@H]2OCCCC[C@@H](C)Oc3ccc(NS(=O)(=O)c4c(C)noc4C)cc3C(=O)N([C@H](C)CO)C[C@H]2C)cc1,-0.3
C[C@@H]1CN([C@H](C)CO)C(=O)Cc2cc(NC(=O)Cn3cnnn3)ccc2O[C@@H]1CN(C)Cc1ccc(C(F)(F)F)cc1,-0.2
O=C(Nc1cccc(F)c1)N1CCCCN2[C@H](CO)[C@@H](c3ccc(C#CC4CC4)cc3)[C@@H]2C1,0.6
COc1ccc2c3c([nH]c2c1)[C@H](CO)N(C(=O)C1CCC1)CC31CCN(C(=O)c2ccncc2)CC1,1.4
Cc1ccc(S(=O)(=O)Nc2ccc3c(c2)CC(=O)N([C@@H](C)CO)C[C@@H](C)[C@@H](CN(C)CC2CC2)O3)cc1,1.6
COc1ccc2c3c(n(C)c2c1)[C@@H](CO)N(C(=O)NC1CCCC1)CC31CCN(C(C)=O)CC1,-3.5
CCCN1[C@@H]2c3ccc(-c4cccc(OC)c4)c(=O)n3C[C@H]1[C@H](CO)[C@H]2C(=O)NCC,-0.5
O=C(NCc1ccccc1)[C@H]1[C@H](CO)[C@H]2Cn3c(cccc3=O)[C@H]2N1C(=O)C1CC1,-6.4

# Copied from the list.
# Value for C[C@@H]1CN([C@H](C)CO)C(=O)Cc2cc(NC(=O)Cn3cnnn3)ccc2O[C@@H]1CN(C)Cc1ccc(C(F)(F)F)cc1 under MLL AF4-AF9 inh: -0.2
# Value for COc1ccc2c3c(n(C)c2c1)[C@@H](CO)N(C(=O)NC1CCCC1)CC31CCN(C(C)=O)CC1 under MLL AF4-AF9 inh: -3.5

# Carrying on.
SMILES,MLL AF4-AF9 inh
O=C(NCCc1ccccc1)c1cccc2c(-c3cccnc3)coc12,-0.5
C[C@H](CO)N1C[C@H](C)[C@H](CN(C)Cc2ccc(Cl)c(Cl)c2)Oc2ccc(NC(=O)C3CC3)cc2C1=O,-1.4
CC(C)NC(=O)NCC[C@@H]1CC[C@H](NC(=O)c2ccc(F)cc2)[C@@H](CO)O1,0.2
C/C=C/c1cnc2c(c1)C(=O)N([C@H](C)CO)C[C@@H](C)[C@@H](CN(C)S(=O)(=O)c1ccc(OC)cc1)O2,-8.4
C[C@@H]1CN([C@H](C)CO)C(=O)c2cccc(NS(=O)(=O)c3ccc(Cl)cc3)c2O[C@H]1CN(C)C(=O)Nc1ccccc1,-8.0
CCc1nc2ccc(C(=O)N(C)CCCN(C)C)cn2c1N(C)C(=O)C1CCCCC1,0.7
COCOCCn1cc(CN2CCS(=O)(=O)N(Cc3ccc(-c4ccc(F)nc4)cc3)C(C)C2=O)nn1 (centres undefined),0.0
COc1c(C)cc(C(O)c2ncc(-c3ccccc3Cl)[nH]2)cc1C (centres undefined),7.6
C[C@@H]1CN([C@@H](C)CO)C(=O)c2cc(NS(C)(=O)=O)ccc2O[C@@H](C)CCCCO[C@@H]1CN(C)C(=O)C1CCCCC1,-5.3
CC(C)NC(=O)N(C)C[C@@H]1Oc2c(NC(=O)NC3CCCCC3)cccc2C(=O)N([C@@H](C)CO)C[C@@H]1C,-4.1
C[C@@H]1CN([C@H](C)CO)C(=O)c2cc(-c3ccccc3F)cnc2O[C@H]1CN(C)C(=O)NC1CCCC1,-2.6
C[C@H]1CN([C@@H](C)CO)C(=O)c2cc(-c3ccc(C#N)cc3)cnc2O[C@@H]1CN(C)C(=O)Nc1ccc(F)cc1,-0.5
COCC#Cc1ccc([C@@H]2[C@@H](CO)N3CCCCN(C(=O)NC4CCCC4)C[C@@H]23)cc1,-3.8
C[C@@H](c1ccccc1)N1C[C@H](COCc2ccccc2)Oc2cc(N3CC[C@@H](N(C)C)C3)ccc2S1(=O)=O,23
C[C@@H]1CN([C@H](C)CO)S(=O)(=O)c2ccc(C#CC(C)(C)O)cc2O[C@@H]1CN(C)Cc1ccncc1,2.3

# Random excerpt: 7 compounds from above.
SMILES,MLL AF4-AF9 inh
CC(C)C[C@@H]1COc2cc(N3CCOCC3)ccc2S(=O)(=O)N1,-0.8
C[C@@H]1CN([C@H](C)CO)S(=O)(=O)c2ccc(C#CC(C)(C)O)cc2O[C@@H]1CN(C)Cc1ccncc1,2.3
COc1ccc(S(=O)(=O)N(C)C[C@H]2OCCCC[C@@H](C)Oc3ccc(NS(=O)(=O)c4c(C)noc4C)cc3C(=O)N([C@H](C)CO)C[C@H]2C)cc1,-0.3
C[C@@H]1CN([C@H](C)CO)C(=O)c2cc(-c3ccccc3F)cnc2O[C@H]1CN(C)C(=O)NC1CCCC1,-2.6
O=C(NCc1ccccc1)[C@H]1[C@H](CO)[C@H]2Cn3c(cccc3=O)[C@H]2N1C(=O)C1CC1,-6.4
C[C@@H]1CN([C@H](C)CO)C(=O)Cc2cc(NC(=O)Cn3cnnn3)ccc2O[C@@H]1CN(C)Cc1ccc(C(F)(F)F)cc1,-0.2
O=C1c2ccccc2C(c2nnnn2Cc2ccccc2)N1CCCN1CCOCC1 (centres undefined),-4.1

# More entries.
SMILES,MLL AF4-AF9 inh
CN(C)C(=O)[C@H]1[C@H](CO)[C@H]2Cn3c(ccc(C4=CCCC4)c3=O)[C@@H]1N2CC1CCOCC1,-14
CCCNC(=O)N1CC2(C1)[C@H](c1ccccc1)[C@@H](CO)N2Cc1ccc(F)cc1,-4.6
C[C@H](CO)N1C[C@H](C)[C@H](CN(C)Cc2ccc(C(=O)O)cc2)Oc2ccc(NS(=O)(=O)c3ccc(Cl)cc3)cc2C1=O,-1.9
N#Cc1nnn2c1nc(N)c1c(Cl)cccc12,-1.1
CC(C)C1(c2ccsc2)NC(=O)NC1=O (centres undefined),-4.0
O=C(CN1CCOCC1)N1CC2(C1)[C@H](c1ccccc1)[C@@H](CO)N2Cc1ccc(F)cc1,1.4
C[C@H](CO)N1C[C@H](C)[C@@H](CN(C)C(=O)CCC(F)(F)F)OCCCC[C@H](C)Oc2ccc(NC(=O)Cc3ccccc3)cc2C1=O,-0.4
COc1cccc(S(=O)(=O)N[C@@H]2CC[C@@H](CCn3cc(-c4ccc(F)cc4)nn3)O[C@@H]2CO)c1,-1.2
O=C(NCC[C@@H]1CC[C@H](NS(=O)(=O)c2ccccc2)[C@@H](CO)O1)c1ccc2c(c1)OCO2,-2.6
O=C(C[C@@H]1C=C[C@H](NS(=O)(=O)c2ccccc2)[C@H](CO)O1)N1CCN(c2ccccc2)CC1,-2.2
O=C(c1ccc(F)cc1)N1CC(=O)N2[C@@H](CO)[C@H](c3ccc(/C=C/c4ccccc4)cc3)[C@@H]2C1,4.7
C[C@H]1CN([C@@H](C)CO)C(=O)c2cc(Br)cnc2O[C@H]1CN(C)S(=O)(=O)c1ccc(F)cc1,-1.1
Cc1noc(C)c1NC(=O)Nc1ccc2c(c1)C(=O)N([C@@H](C)CO)C[C@H](C)[C@@H](CN(C)S(=O)(=O)c1cn(C)cn1)O2,-3.1
CCC(=O)N1CC2(C1)CN(C(=O)Nc1ccc(F)cc1)[C@@H](CO)c1c2c2ccc(OC)cc2n1C,-1.7
O=C(C[C@H]1C[C@@H]2c3cc(NC(=O)CC4CC4)ccc3O[C@@H]2[C@@H](CO)O1)NCC1CC1,0.8
CCCC#Cc1cnc2c(c1)C(=O)N([C@@H](C)CO)C[C@H](C)[C@@H](CN(C)C(=O)Nc1cccc(F)c1)O2,2.5
Cc1ccc(S(=O)(=O)N[C@H]2C=C[C@@H](CC(=O)NCCc3ccncc3)O[C@H]2CO)cc1,-1.7
C[C@H]1CN([C@@H](C)CO)C(=O)CCCn2cc(nn2)CO[C@H]1CN(C)C,3.5
COCc1[nH]nc2c1C(c1cccc(C(F)(F)F)c1)N(c1ccccc1)C2=O (centres undefined),0.4
C[C@@H]1CCCCO[C@H](CN(C)Cc2ccc(C(=O)O)cc2)[C@@H](C)CN([C@H](C)CO)C(=O)c2cc(NC(=O)Nc3ccc(F)cc3)ccc2O1,-3.0
COc1ccc(C(O)c2nc(-c3cc4ccccc4o3)cs2)cc1 (centres undefined),-1.0
COc1ccc(NC(=O)C2Cc3c(-c4cccc(F)c4)ccnc3O2)cc1 (centres undefined),2.3
CCC(=O)N1CCC2(CC1)CN(Cc1nccs1)[C@H](CO)c1c2c2ccc(OC)cc2n1C,0.2
CCOc1ccc(-c2cc(C(=O)NCc3cc(C(F)(F)F)cc(C(F)(F)F)c3)[nH]n2)c(C)c1,-4.0
O=C(C[C@H]1CC[C@H]2[C@@H](COC[C@@H](O)CN2C(=O)c2ccccn2)O1)N1CCN(c2ccccc2)CC1,0.1
C[C@@H]1CCCCO[C@@H](CN(C)C(=O)NC2CCCCC2)[C@H](C)CN([C@H](C)CO)C(=O)c2cc(NC(=O)Nc3ccc4c(c3)OCO4)ccc2O1,4.0
Cc1noc(C)c1NC(=O)Nc1ccc2c(c1)C(=O)N([C@@H](C)CO)C[C@@H](C)[C@H](CN(C)S(C)(=O)=O)O2,-0.7
O=C(C[C@@H]1C[C@H]2c3cc(NC(=O)Nc4ccccc4F)ccc3O[C@H]2[C@H](CO)O1)NCC1CC1,3.2
O=C(C[C@@H]1C[C@@H]2c3cc(NC(=O)c4cccnc4)ccc3O[C@@H]2[C@H](CO)O1)NCc1ccccc1,-3.2
COc1ccc(NC(=O)Nc2cccc3c2O[C@@H](CN(C)CC2CCCCC2)[C@@H](C)CN([C@@H](C)CO)C3=O)cc1,2.5
CSCCC(c1nnnn1Cc1ccccc1)N1CCN(C/C=C/c2ccccc2)CC1 (centres undefined),5.9
Cc1noc(C)c1NC(=O)NCC[C@H]1CC[C@@H](NC(=O)Nc2cccc(Cl)c2)[C@@H](CO)O1,2.9
Cc1noc(C)c1NC(=O)Nc1ccc2c(c1)C(=O)N([C@@H](C)CO)C[C@@H](C)[C@H](CN(C)Cc1ccc3c(c1)OCO3)O2,-1.8
Cc1ccc(S(=O)(=O)N2CCN(C(=O)COC(=O)COc3ccc(Cl)cc3C)CC2)c(C)c1,-1.7
CN1C(=O)c2cc(NS(=O)(=O)c3cccc(F)c3)ccc2OC[C@@H]2O[C@@H](CC(=O)NCCN3CCCCC3)CC[C@H]21,-1.2
CC1(C(=O)Nc2ccc3c(c2)OCCO3)CN(S(C)(=O)=O)CC(=O)N1CCc1ccc(O)cc1 (centres undefined),-3.3
CCC(=O)NC(c1cccs1)c1cc([N+](=O)[O-])c2cccnc2c1OC (centres undefined),3.8
CN1[C@@H]2c3ccc(-c4ccccc4F)c(=O)n3C[C@@H]2[C@@H](CO)[C@@H]1C(=O)NCC(F)(F)F,-0.5
C[C@@H](NC(=O)C[C@@H]1C[C@@H]2c3cc(NC(=O)C4CCC4)ccc3O[C@@H]2[C@@H](CO)O1)c1ccccc1,1.7
COCC(=O)N(C)C[C@H]1Oc2ncc(C#Cc3cccnc3)cc2C(=O)N([C@@H](C)CO)C[C@H]1C,-4.8
Cc1cc(C(=O)Nc2cccc3c2O[C@H](CN(C)CC2CC2)[C@@H](C)CN([C@@H](C)CO)C3=O)n(C)n1,-2.0
C[C@H]1CN([C@@H](C)CO)C(=O)c2cc(-c3ccccc3)cnc2O[C@H]1CN(C)C(=O)c1ccccc1F,-1.1
C[C@@H]1CN([C@@H](C)CO)C(=O)Cc2cc(NC(=O)Nc3ccccc3)ccc2O[C@@H]1CN(C)Cc1ccc2c(c1)OCO2,7.4
O=C(C[C@@H]1C[C@H]2c3cc(NC(=O)C4CCC4)ccc3O[C@H]2[C@H](CO)O1)NCC1CC1,-3.6
C[C@@H]1CN([C@@H](C)CO)C(=O)c2cc(-c3cncnc3)cnc2O[C@H]1CN(C)C(=O)Nc1ccc2c(c1)OCO2,-0.4
COc1ccc2c3c(n(C)c2c1)[C@@H](CO)N(C(=O)NC(C)C)CC31CN(C(=O)NC(C)C)C1,2.3
COc1ccc(NC(=O)N(C)C[C@H]2Oc3ccc(NS(=O)(=O)c4ccc(OC)cc4)cc3C(=O)N([C@@H](C)CO)C[C@@H]2C)cc1,-0.9
CC(=O)Nc1cc(-c2ccc(N3CCN(C)CC3)cc2)cn2c(-c3ccc(F)cc3)cnc12,26*
O=C(c1ccc(F)cc1)N1CC[C@@H]2[C@@H](CO)Nc3ccc(-c4ccccc4F)cc3[C@@H]21,13
COC(=O)[C@]12CCCCC=C1N(Cc1cccc3ccccc13)C(=O)[C@H](CC(=O)NCc1cccc(C(F)(F)F)c1)C2,-0.8
O=C(C1CCOCC1)N1CC(=O)N2[C@H](CO)[C@H](c3ccc(C#CC4CC4)cc3)[C@H]2C1,-0.4
O=C(c1ccc(F)cc1)N1C[C@@H]2[C@H](c3ccccc31)[C@H](CO)N2Cc1ccc2c(c1)OCO2,-0.7
CN1C(=O)c2cc(NC(=O)C3CC3)ccc2OC[C@@H]2O[C@@H](CC(=O)O)CC[C@@H]21,-1.1
C[C@@H]1CCCCO[C@H](CN(C)C(=O)Nc2ccc3c(c2)OCO3)[C@H](C)CN([C@H](C)CO)C(=O)c2cc(NS(=O)(=O)c3ccc(F)cc3)ccc2O1,-0.4
Cc1noc(C)c1NC(=O)N(C)C[C@@H]1Oc2ccc(NC(=O)C3CCCCC3)cc2CC(=O)N([C@H](C)CO)C[C@H]1C,-1.0
O=C(c1ccc(F)cc1)N1[C@@H](CO)[C@@H]2c3ccccc3NC[C@@H]21,2.8

# This is a subset, so the mix of outcomes need not match the whole.
